Screening results deposited in PubChem by National Center for Advancing Translational Sciences (NCATS).
CtBP-E1A blk – CtBP/E1A binding inhibition. AID 651724. activity change, % (no concentration beside the values). AlphaScreen GST-E1A/His-CtBP binding, 1536-well; hits give low values; control for the full effect not named in the record. 340,000 tested, 0.49% active; in the data active means activity change below about -65%; inconclusive means about -30% to -65%; inactive means above about -30%; also: % is scaled to controls: 0 for no effect and ±100 for the full control effect; compound concentration not given in the record
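GST-E1A and His-tagged CtBP (125 nM each as 5X stock) were preincubated with pin-transferred compound for 2 h at 37 °C in the dark, then glutathione donor and nickel acceptor beads were added for 1 h before AlphaScreen reading.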
TRPV1 potentiator – human TRPV1 potentiation; Q8NER1; TRPV1-expressing cells, Fluo-8 calcium influx, capsaicin EC20 potentiation; host cell line not named in the record; control for the full effect not named in the record; potentiation, % at 8.33 µM; 320,000 tested, 0.02% active; AID 540277; active means potentiation above 80%; inconclusive means 30% to 80%; inactive means below 30%; also: 0% is about no effect
Target sequence (Q8NER1 whole entry, looked up): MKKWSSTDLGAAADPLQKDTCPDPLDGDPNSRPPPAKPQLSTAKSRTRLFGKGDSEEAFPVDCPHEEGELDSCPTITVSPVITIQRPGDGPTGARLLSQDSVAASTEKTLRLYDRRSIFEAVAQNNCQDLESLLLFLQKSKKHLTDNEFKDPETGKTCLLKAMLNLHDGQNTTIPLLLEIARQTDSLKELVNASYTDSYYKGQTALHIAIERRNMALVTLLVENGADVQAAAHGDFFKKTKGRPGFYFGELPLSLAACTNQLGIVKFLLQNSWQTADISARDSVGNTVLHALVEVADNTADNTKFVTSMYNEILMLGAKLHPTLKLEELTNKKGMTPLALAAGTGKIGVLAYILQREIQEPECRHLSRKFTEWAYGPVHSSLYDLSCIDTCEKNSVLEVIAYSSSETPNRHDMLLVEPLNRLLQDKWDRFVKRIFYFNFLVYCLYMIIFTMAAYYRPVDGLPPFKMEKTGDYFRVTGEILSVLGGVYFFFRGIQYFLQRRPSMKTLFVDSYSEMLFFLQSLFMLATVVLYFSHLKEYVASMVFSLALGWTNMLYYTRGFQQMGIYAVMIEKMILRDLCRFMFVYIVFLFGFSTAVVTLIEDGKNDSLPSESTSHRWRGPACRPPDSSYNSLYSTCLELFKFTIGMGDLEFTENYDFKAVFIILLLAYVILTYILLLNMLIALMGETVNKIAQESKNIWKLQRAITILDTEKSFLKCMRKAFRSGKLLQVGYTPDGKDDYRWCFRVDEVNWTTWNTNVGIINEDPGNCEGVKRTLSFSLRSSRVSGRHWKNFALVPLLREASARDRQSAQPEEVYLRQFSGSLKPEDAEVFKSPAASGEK
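Cells expressing TRPV1 were dye-loaded with Fluo-8 and read kinetically: 10 s baseline, 3 min after compound (agonist portion), then 2 min after EC20 capsaicin (allosteric enhancer portion). Calcium-bound dye fluorescence at 480/520 nm.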
Sfp inh – blocks B. subtilis Sfp PPTase activity; Q9F4F7; Biochemical Sfp PPTase activity, qHTS; Potency, µM, without a hit: max response, negative = inhibition, most hits filed as inhibitors; 310,000 tested, 3.5% active; AID 1490; active = well fitted inhibition curve with a large enough effect; inconclusive = small, poorly fitted or top-dose-only effect, or another doubt; inactive = no such curve, though single readings can be large or run the other way;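 also: the enzyme is Sfp with the accession as filed and its product quenches rhodamine fluorescence; potency is read from the fitted curve at half-maximal effect; 0% = enzyme reaction without inhibitor and -100% = no enzyme wells; top concentration of the series not given in the record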
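Fluorescence-quenching assay: 15 nM Sfp-PPTase preincubated 15 min at room temperature with compound, then 5 uM rhodamine-CoA and 12.5 uM BHQ-2-labelled YbbR peptide added. Fluorescence (ex 525/em 598 nm) read at start and after 30 min; difference gives rate.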
D2 PAM – positive allosteric modulators of human D2 dopamine receptor; P14416; DiscoveRx D2 beta-arrestin cells, luminescence, 90 min; 100% = 57 uM dopamine signal; potentiation, % (no concentration beside the values); 360,000 tested, 0.23% active; active = potentiation of 50% or more; inconclusive = 30% to 50%; inactive = 30% or less;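 also: compound concentration not given in the record; tested on top of an EC20 dose of dopamine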
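D2 cells co-treated with compound plus 50 nM dopamine (EC20) for 90 min at 37 deg C to detect potentiation. Beta-arrestin recruitment was read as enzyme-fragment luminescence after 1 h at ambient temperature. Full response was set by 57 uM dopamine.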
Six1-Eya2 inh – blocks human Six1 binding to Eya2; Q15475+O00167; 360,000 tested, 0.56% active; activity change, % (concentration not given with the values); AlphaScreen GST-Six1/His-Eya2 binding, biochemical; hits give low values; control for the full effect not named in the record; in the data active = activity change below about -65%; inconclusive = about -30% to -65%; inactive = above about -30%; also: % is scaled to controls: 0 for no effect and ±100 for the full control effect
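Six1/Eya2 binding was read as AlphaScreen signal after compounds were pinned into GST-Six1 plus His-tagged Eya2 (5X stock 250/500 nM) in pH 8.0 Tris/NaCl/TCEP buffer, beads added, then incubated 1 h, 37 C, dark.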
PINK1 modulator – changes PINK1 expression | PINK1 immunofluorescence, high-content cytometry, 24 h | Potency, µM (doses to about 76.6 µM), inactives show at the highest dose activation (PINK1 increase), usual class: activators | 410,000 tested, 0.2% active | AID 624263; active = well fitted activation curve with a large enough effect; inconclusive = small, poorly fitted or top-dose-only effect; inactive = flat fitted curve, though single readings scatter; cell line not stated here;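 also: potency is read from the fitted curve at half-maximal effect; % of control where 0% means no effect; nearly all actives have a fitted effect of over 65% in size; a mitochondrial uncoupler was the plate control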
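Stable cell line treated 24 h with compounds at 5 concentrations (CCCP controls), then fixed and immunostained for PINK1 plus nuclear and cell stains; PINK1 immunofluorescence quantified by laser-scanning microplate cytometry.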
D2 ag – activates the human D2 dopamine receptor | 360,000 tested, 0.084% active | DiscoveRx PathHunter D2 beta-arrestin, luminescence, 90 min; 100% = 57 uM dopamine signal | activation, % (test concentration not listed) | AID 624465; in the data active = activation above about 40%; inconclusive = about 15% to 40%; inactive = below about 15%; also: compound concentration not given in the record; the text of the record calls up to 30% inactive
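Agonist mode: compounds alone added to overnight-plated D2 PathHunter cells for 90 min at 37 C, with 57 uM final dopamine (EC100) defining full response. Beta-arrestin recruitment detected by chemiluminescent reagent, read after 1 h at ambient temperature.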
Starred values were filed as active, the others as inactive; ? = inconclusive; . = no result given; & = joins results of further samples; [ ] = another dose, or the depositor's remark. An unsorted share of the library; overall some 3.7% were active at least once.

Below each SMILES – CtBP-E1A blk | TRPV1 potentiator | Sfp inh | D2 PAM | Six1-Eya2 inh | PINK1 modulator | D2 ag
- O=C(Oc1ccc(N(Cc2cccs2)C2=NS(=O)(=O)c3ccccc32)cc1)c1ccccc1Cl
  7 | 16 | -1% | -2 | 4 | 0.8% | -3.5
- CCCNC(=O)c1ccccc1NC(=O)COc1ccc(OC)cc1
  10 | -7 | 1% | 4 | 14 | 3.9% | -0.1
- COc1ccc(/C=N/NC(=O)C(C)n2cnc3ccccc3c2=O)cc1 (stereo unspecified)
  -1 | 1 | 31%[activator] | -3 | -1 | 0.2% | -3.0
- COc1ccc(CNC(=O)CCN2C(=O)c3ccncc3C2=O)cc1OC
  2 | -6 | 28% | 6 | -2 | 3.8% | -1.8
- CCOC(=O)c1nn(-c2ccccc2)c2nc(Nc3ccccc3)cc(=O)n12
  -19 | -1 | 3% | 20 | -17 | -1.6% | 0.9
- O=[n+]1cc(-c2ccccc2)n([O-])c2c1CCC2
  0 | 14 | 0% | 3 | 11 | 0.1% | -5.6
- O=C(NC1CCCCC1)C(c1cc2ccccc2o1)N1CCOCC1 (stereo unspecified)
  2 | . | . | -9 | 11 | 0.7% | -6.1
- Cc1ccnc(NC(=O)c2ccc(S(=O)(=O)N3CCCCCC3)cc2)c1
  9 | -13 | . | 10 | -9 | 1.1% | -4.4
- Cc1ccccc1C(OCCN(C)C)C1CCCCC1 (stereo unspecified)
  -9 | -5 | 9% | -40 | -6 | 7.0% | -2.5
- Cc1ccc(Nc2nc(C(=O)NCC3CCCO3)cs2)cc1 (stereo unspecified)
  -5 | -9 | 7% | -1 | -1 | -1.1% | 1.6
- CCc1ccc(CN2C(=O)c3ccccc3C2C(=O)NCc2cccnc2)cc1 (stereo unspecified)
  5 | -5 | 14% | -5 | 12 | -1.0% | -1.1
- CC(=O)Nc1nonc1NC(C)=O
  3 | 21 | 21% | -13 | 3 | -0.4% | -1.2
- CCc1ccccc1NC(=S)N(CCN(C)C)C(C)c1cccnc1 (stereo unspecified)
  9 | 5 | -27% | -3 | 16 | -0.1% | -2.5
- CCN(CC)C(=O)c1cccc(-c2csc(C(O)c3cccc(OC)c3)n2)c1 (stereo unspecified)
  5 | . | . | -3 | -8 | 3.9% | 1.8
- CCCCC[C@H](O)/C=C/[C@@H]1[C@@H](CCCCCCC(=O)O)[C@@H](O)C[C@H]1O
  6 | 2 | 4%&22%&15% | -9 | 1 | 2.7% | -4.8
- CCCCN(C(=O)Cn1nnc2ccccc21)C(C(=O)NCCOC)c1ccc(OC)cc1OC (stereo unspecified)
  -2 | -13 | 10% | -14 | -2 | -1.6% | -4.4
- CCCOc1cccc(NC(=O)OC2CCN(C)CC2)c1
  -3 | -19 | -16% | 2 | 4 | -0.3% | -1.2
- CCn1c(=O)c2[nH]c(SC)nc2n(CC)c1=O
  -12 | . | . | -8 | 1 | 0.3% | -4.0
- COc1ccc(S(=O)(=O)N(c2onc(C)c2Cl)S(=O)(=O)c2ccc(OC)cc2)cc1
  -2 | -14 | 9% | 5 | 13 | 0.7% | -1.2
- CC1CC(C)CN(C(=O)/C=C/c2ccc(S(=O)(=O)N3CCOCC3)cc2)C1 (stereo unspecified)
  1 | -22 | . | 10 | 4 | 1.5% | -5.8
- COc1ccccc1C(CNC(=O)C1COc2ccccc2O1)N1CCCC1 (stereo unspecified)
  . | 1 | . | -12 | -4 | 0.1% | -1.6
- COc1cc(-c2nc3ccccn3c2/N=C/c2cccc(OC)c2O)ccc1O
  -10 | ? | -11% | 22 | 6 | 6.0% | 11
- O=C(CCc1nc(-c2ccc(Cl)cc2)no1)NCc1ccccc1CN1CCOCC1
  6 | 10 | . | -1 | 2 | -1.5% | 1.2
- O=P(NCc1ccccc1)(OCc1ccccc1)OCc1ccccc1
  4 | . | . | -13 | 0 | -1.8% | -0.8
- COc1cccc(-c2nc(N3CC(C)CC(C)C3)c3ccccc3n2)c1O (stereo unspecified)
  0 | 0 | ? | 1 | -22 | -0.2% | -1.8
- C=CCN1C(=O)C(CC(=O)Nc2ccccc2)N(Cc2ccccn2)C1=S (stereo unspecified)
  8 | 1 | 15% | -3 | 0 | -0.1% | 4.1
- COc1ccccc1OCC(=O)Nc1ccc(N2CCOCC2)cc1N1CCOCC1
  4 | -3 | . | 9 | -6 | 3.4% | -0.4
- Cc1cc(Cl)ccc1NC(=O)C1COc2ccccc2O1 (stereo unspecified)
  . | -13 | 14% | -8 | 5 | -1.5% | -3.7
- CC1(C(=O)NS(=O)(=O)c2ccc(Cl)cc2)CCN1C(=O)Cc1ccc(Cl)cc1Cl (stereo unspecified)
  3 | . | . | -5 | 10 | -0.5% | -3.8
- O=C(CSCc1nc2c(nnn2Cc2ccc(F)cc2)c(=O)[nH]1)Nc1cccc(C(F)(F)F)c1
  4 | 2 | 13% | -20 | -2 | 1.0% | -5.5
- CC(=O)Nc1ccc(SCC(=O)OCC(=O)NC(=O)NCc2ccco2)cc1
  6 | -4 | 5% | -6 | 0 | -1.6% | -2.9
- CC1(C)Oc2ccc3ccc(=O)oc3c2C[C@H]1O
  5 | ? | 10% | -3 | 3 | 0.9% | -2.2
- CC(=O)c1cc(-c2ccc(F)cc2)n(CC(=O)NCc2cccs2)c1C
  1 | . | -6% | -19 | -2 | 11% | -3.7
- Cc1cccc(CN2CCN(C(=O)CN(C)C(C)C(=O)Nc3ccc(C(N)=O)cc3)CC2)c1 (stereo unspecified)
  . | 3 | . | -7 | 0 | -0.4% | -4.8
- CC(=O)Nc1ccc(S(=O)(=O)Nc2nc3ccccc3s2)cc1
  -12 | -3 | 6% | -10 | 8 | -3.4% | 0.1
- NC(=O)Cc1ccc(C(=O)c2ccccc2)s1
  -18 | 15 | 0% | -4 | 8 | -1.3% | -5.8
- CCOC(=O)C1=CCN(S(=O)(=O)c2ccccc2C)C1c1cccc(F)c1 (stereo unspecified)
  -1 | . | . | -3 | -4 | 2.5% | -3.6
- C=CCNC(=O)/C(=C/c1cccc([N+](=O)[O-])c1)NC(=O)c1ccco1
  -1 | 10 | 19% | 4 | 0 | 0.2% | -0.8
- Cc1ccc(C(=O)CSc2ncnc3sc4c(c23)CCCC4)cc1
  2 | -1 | 4% | -4 | 5 | 1.1%[38.3 µM] | 0.5
- O=C(c1ccc(COc2ccccc2Cl)o1)N1CCOCC1
  4 | -13 | 8% | -3 | 3 | -0.5% | -2.0

Individual results from the entries so far:
`CCCCN(C(=O)Cn1nnc2ccccc21)C(C(=O)NCCOC)c1ccc(OC)cc1OC` (stereo unspecified) @ D2 PAM: -14
`O=C(CSCc1nc2c(nnn2Cc2ccc(F)cc2)c(=O)[nH]1)Nc1cccc(C(F)(F)F)c1` @ CtBP-E1A blk: 4

(listing goes on)
Below each SMILES – CtBP-E1A blk | TRPV1 potentiator | Sfp inh | D2 PAM | Six1-Eya2 inh | PINK1 modulator | D2 ag
- CC(C)N1CCN(Cc2ccc(OCc3ccccc3)cc2)CC1CCO (stereo unspecified)
  . | 2 | 5% | -15 | -20 | -1.8% | -4.3
- COC(=O)c1cc(NC(=O)Cc2ccccc2[N+](=O)[O-])cc(C(=O)OC)c1
  -12 | -8 | -12% | -4 | -16 | 16%[38.3 µM] | 0.1
- CCOC(=O)CC1(NC(=O)C2CCC(=O)N(CCc3ccccc3)C2)CCCCC1 (stereo unspecified)
  . | 24 | 15% | 0 | 0 | 2.6% | -1.5
- O=C(Nc1ncc(Cc2cc(Cl)ccc2Cl)s1)c1ccc([N+](=O)[O-])cc1
  -21 | . | 6% | -12 | -5 | 9.9% | 0.0
- O=C(CC(CC(=O)c1ccccc1)C(=O)O)c1ccccc1
  5 | 1 | 3% | 1 | 6 | -0.6%[38.3 µM] | -2.9
- CCN(c1ccccc1)S(=O)(=O)c1cccc(C(=O)NCC2(N(C)C)CCCCC2)c1
  . | 0 | . | -14 | -6 | -1.4% | -2.2
- COc1ccc(S(=O)(=O)N2CCN(Cc3c[nH]c4ccccc34)CC2)cc1
  -7 | . | 8% | -32 | -10 | 0.1% | -5.4
- CC(NCc1ccc(OCc2ccc(Cl)cc2)cc1)C(O)c1ccccc1 (stereo unspecified)
  -7 | 5 | ? | -5 | 1 | -3.4% | -6.5
- Cc1cc(C)c(S(=O)(=O)N2CCC(C(=O)OCc3c(C)noc3C)CC2)c(C)c1
  5 | 5 | . | 0 | 2 | -0.1% | -6.7
- Nc1c2c(nc3ccn(-c4ccccc4)c(=O)c13)CCCCC2
  4 | -2 | 17% | -16 | 1 | -0.6% | -1.3
- CCCCC[C@@H]1C=C(C(=O)O)[C@H](c2ccc(OC)c(OC)c2)N1S(=O)(=O)c1ccc(C)cc1
  -3 | . | . | -2 | -2 | -0.6% | -0.2
- Cc1cs/c(=N\N=C\c2ccc(O)cc2)n1Cc1ccco1
  -28 | 0 | 2% | -7 | ? | 1.5% | 2.4
- CC(=O)NC(c1cccc(F)c1)c1nc(-c2ccc(N(C)C)cc2)cs1 (stereo unspecified)
  -6 | . | . | -11 | -6 | 5.1% | 5.9
- O=C(c1cnc2ccc(Cl)cc2c1Cl)N1CCOCC1
  13 | 4 | 0% | -4 | 2 | 2.7% | -2.1
- O=c1[nH][nH]c2c1[C@@H](c1ccc(F)cc1)O[C@H](CCOCc1ccccc1)C2
  1 | . | . | . | -3 | -0.8% | .
- COc1ccc(NC(=O)CN(C)C(=O)C(NC(=O)c2ccco2)C(C)C)cc1 (stereo unspecified)
  -14 | -2 | . | -7 | 2 | -0.1% | -3.0
- Cc1ccc(N2CCCn3c2cc(C)c(C#N)c3=O)cc1C
  3 | 1 | 5% | 4 | 2 | 0.3% | 1.3
- CN(C)c1ccc(C(=O)C=Cc2ccc([N+](=O)[O-])cc2)cc1
  -1 | . | . | -11 | 0 | -1.1% | -0.7
- Cc1ccc(OCCn2cccn2)c(C)c1
  . | 0 | -1% | -4 | 2 | 0.5% | -0.6
- CCc1c(C(=O)N/N=C/c2cccs2)nnn1-c1nonc1N
  0 | -21 | 21% | -6 | -4 | 1.0% | -1.3
- Cn1c(=O)oc2cc(S(=O)(=O)NCCN3CCN(c4ccccc4)CC3)ccc21
  0 | 27 | 28% | -14 | 1 | 0.0% | -2.0
